liver stage: exo-erythrocytic parasite development inhibition – imaging, Malaria Box, P. yoelii, HepG2-A16-CD81EGFP, dose response (AID 602156); 4.8% of 5,700 active; P. yoelii liver stage in HepG2-A16-CD81EGFP, imaging; first-round cut-off not given here; calls after a first round at 10 µM; hits with a dose series show IC50 in µM; in the data active = a potency from the dose series;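 also: infected cells exposed to compound for 48 hours before fixation; stained parasite area by imaging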
Numbers without * were called inactive; i = inactive.

nr | liver stage | Molecule
1 | i | COc1ccc(-c2cc(-c3ccccc3)nc(SCC(=O)N3c4ccccc4Sc4ccc(Cl)cc43)c2C#N)cc1
2 | i | Cn1nc(C(=O)N2CCCC2)c2c1CCC(NCc1cnc3ccccc3c1)C2 (centres undefined)
3 | i | CCOc1ccc2[nH]c(=O)c(CN(Cc3ccccc3OC)C(C)=O)cc2c1
4 | i | CCCCC[n+]1c(C)n(CCCC)c2cc(Cl)c(Cl)cc21
5 | i | O=C(NCc1ccc2c(c1)OCO2)C1CNCC1c1ccc(C(F)(F)F)cc1 (centres undefined)
6 | i | O=C1Nc2ccc(S(=O)(=O)Nc3ccc(NS(=O)(=O)c4ccc5c6c(cccc46)C(=O)N5)cc3)c3cccc1c23
7 | i | O=C(C=Cc1cccnc1)C12CC3CC(CC(C3)C1)C2
8 | i | O=C1NC(=S)N/C1=C/c1ccc(C(F)(F)F)cc1
9 | i | Cc1ccc(COc2ccc3c(C#N)c4ccccn4c3c2)cc1
10 | i | NC12CC3CC(C1)CC(SSC14CC5CC(CC(N)(C5)C1)C4)(C3)C2
11 | i | COc1ccccc1NC1=CC(=NS(=O)(=O)c2ccc(F)cc2)c2ccccc2C1=O
12 | i | COc1ccc(C2CC(=O)C3=C(C2)NC(C)=C(C(=O)OC2CCCC2)C3c2ccc(Cl)cc2Cl)cc1 (centres undefined)
13 | i | COc1ccc(C2(CNCC(O)c3cccc([N+](=O)[O-])c3)CCCC2)cc1OC (centres undefined)
14 | 0.277µM* | Cc1cccc(NC(=S)NC2CC3CCCC(C2)N3CCc2ccccc2)c1 (centres undefined)
15 | i | CCCCc1ccc(Nc2ncnc3sc4c(c23)CCCC4)cc1
16 | i | CCc1c(C)c(C#N)c2nc3ccccc3n2c1NCc1ccco1
17 | i | CCCCOc1ccc(C(=O)NCCOc2cccc(OC)c2)cc1
18 | i | CCOC(=O)c1c(NC(=O)c2cccnc2)sc(C)c1CC
19 | i | COc1cc(NC(C)CCCN(Cc2ccc(OC)c(OC)c2)C(=O)c2ccccc2C)c2ncccc2c1 (centres undefined)
20 | i | CC1CCC(Nc2ccnc3cc(Cl)ccc23)CC1 (centres undefined)

Marked active in liver stage, of those listed so far:
nr | liver stage | Molecule
14 | 0.277µM* | Cc1cccc(NC(=S)NC2CC3CCCC(C2)N3CCc2ccccc2)c1 (centres undefined)

Among those listed so far, these contain a cyano group:
nr | liver stage | Molecule
1 | i | COc1ccc(-c2cc(-c3ccccc3)nc(SCC(=O)N3c4ccccc4Sc4ccc(Cl)cc43)c2C#N)cc1
9 | i | Cc1ccc(COc2ccc3c(C#N)c4ccccn4c3c2)cc1
16 | i | CCc1c(C)c(C#N)c2nc3ccccc3n2c1NCc1ccco1

Back to the main list with the 4 entries that preceded the break.
nr | liver stage | Molecule
17 | i | CCCCOc1ccc(C(=O)NCCOc2cccc(OC)c2)cc1
18 | i | CCOC(=O)c1c(NC(=O)c2cccnc2)sc(C)c1CC
19 | i | COc1cc(NC(C)CCCN(Cc2ccc(OC)c(OC)c2)C(=O)c2ccccc2C)c2ncccc2c1 (centres undefined)
20 | i | CC1CCC(Nc2ccnc3cc(Cl)ccc23)CC1 (centres undefined)
21 | i | C=CCn1c(SCC(=O)Nc2ccccc2C)nc2sc(C)cc2c1=O
22 | i | CCC(c1nc2ccccc2c(=O)n1-c1ccccc1OC)N(CCc1ccccc1)C(=O)c1cccc(OC)c1 (centres undefined)
23 | i | CN(C)/C=C1\Oc2ccccc2N=C1Cl
24 | i | COc1ccc(C(=O)N(C)CCCNc2ccnc3cc(Cl)ccc23)cc1
25 | i | c1ccc([B-](c2ccccc2)(c2ccccc2)c2ccccc2)cc1
26 | i | Cc1nc(N=C(N)N)nc2c(C)cccc12
27 | i | COc1ccc(OC(C)=O)c(C=NNC(=O)C(C)Oc2ccccc2Br)c1 (centres undefined)
28 | i | O=c1cc[nH]c2cc(N3CCCCCC3)c(F)cc12
29 | i | CCn1c(SCC(=O)N(c2ccccc2)c2ccccc2)nc2sc3c(c2c1=O)CCN(C)C3
30 | i | CC1CCN(c2nncc3ccccc23)CC1
31 | i | Cc1c2oc3c(C)ccc(C(=O)NC4C(=O)NC(C(C)C)C(=O)N5CCCC5C(=O)N(C)CC(=O)N(C)C(C(C)C)C(=O)OC4C)c3nc-2c(C(=O)NC2C(=O)NC(C(C)C)C(=O)N3CCCC3C(=O)N(C)CC(=O)N(C)C(C(C)C)C(=O)OC2C)c(N)c1=O (centres undefined)
32 | i | C=C(C)C(=O)OCCc1ccc(O)c(-n2nc3ccccc3n2)c1
33 | i | COc1cc(C(=O)NCc2ccco2)ccc1OC1CCN(CC(c2ccccc2)c2ccccc2)CC1
34 | i | CCOC(=O)c1nnn(-c2nonc2N)c1-c1ccc(C)cc1
35 | i | CN(C)CCCNc1ncc(C(=O)NCc2ccccc2)c(NCCc2ccccc2)n1
36 | i | Cc1nc2cc(-c3ccc(Br)cc3)[nH]n2c(=O)c1C
37 | i | N#Cc1c2c(c(N3CCN(C(c4ccccc4)c4ccccc4)CC3)n3c1nc1ccccc13)CCC2
38 | i | COc1ccc(CCN2CCC(NCc3cccc(N(C)C)c3)CC2)cc1
39 | i | CCOc1ccc(-n2c(=S)sc3c(=O)n(-c4ccc(C)cc4)c(SCC(=O)Nc4cc(OC)ccc4OC)nc32)cc1
40 | i | CC(=O)Nc1ccccc1OC(F)(F)F
41 | i | CCOC(=O)c1[nH]c(C)c(CNc2cccc(OC)c2)c1C
42 | i | CC1=NNC(=O)C1C(c1ccc(Cl)cc1Cl)C1C(=O)NN=C1C (centres undefined)
43 | i | Cc1ccc(NC(=O)c2sc3nc4c(c(-c5ccc(C)cc5)c3c2N)CCC4)cc1

4 structures already listed, arranged by molecular weight, ascending.
nr | liver stage | Molecule
26 | i | Cc1nc(N=C(N)N)nc2c(C)cccc12
28 | i | O=c1cc[nH]c2cc(N3CCCCCC3)c(F)cc12
27 | i | COc1ccc(OC(C)=O)c(C=NNC(=O)C(C)Oc2ccccc2Br)c1 (centres undefined)
33 | i | COc1cc(C(=O)NCc2ccco2)ccc1OC1CCN(CC(c2ccccc2)c2ccccc2)CC1

Some of the compounds tested; the hit share may differ from the screen's.
